VDR inh: vitamin D3 receptor (human) inhibition | P11473 | VDR-SRC2-3 peptide fluorescence polarization, 2 h | Potency, µM, inactives show max response, negative = inhibition, most hits filed as inhibitors | actives 0.93% (n = 400,000); active = well fitted inhibition curve with a large enough effect; inconclusive = small, poorly fitted or top-dose-only effect, or another doubt; inactive = no such curve, though single readings can be large or run the other way; note: series mostly up to about 120 µM
Target sequence (P11473 whole entry, looked up): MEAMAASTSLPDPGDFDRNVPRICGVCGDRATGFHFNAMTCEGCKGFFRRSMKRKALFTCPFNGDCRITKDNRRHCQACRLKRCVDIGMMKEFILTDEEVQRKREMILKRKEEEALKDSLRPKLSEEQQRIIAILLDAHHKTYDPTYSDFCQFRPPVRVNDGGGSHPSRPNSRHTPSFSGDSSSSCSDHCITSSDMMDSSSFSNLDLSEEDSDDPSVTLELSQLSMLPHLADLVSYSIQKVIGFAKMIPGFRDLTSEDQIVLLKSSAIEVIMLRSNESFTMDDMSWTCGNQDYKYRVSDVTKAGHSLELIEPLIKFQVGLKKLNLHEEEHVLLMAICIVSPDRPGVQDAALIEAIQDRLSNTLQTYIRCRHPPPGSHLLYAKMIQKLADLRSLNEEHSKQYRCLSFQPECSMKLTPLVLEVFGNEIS
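After 23 nl compound addition and a short centrifugation, plates sat for 2 hours at ambient temperature; polarization of fluorescence then indicated loss of VDR binding to peptide SRC2-3.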
An asterisk follows results filed as active; ? = inconclusive; & = joins results of further samples. % is set by controls: 0 for no effect and ±100 for the full control effect; potency is the fitted concentration of half-maximal effect. The list is partial; rates above refer to the full screens.

VDR inh,SMILES
15%,CCCC12CN3CC(CCC)(CN(C1)C3c1ccco1)C2=O (stereo not drawn)
?,CCOc1ccc2oc(C(=O)NCc3ccccc3CN3CCCC3)c(C)c2c1
-1%,CC1CCCN(S(=O)(=O)c2ccc(Cl)s2)C1 (stereo not drawn)
79µM*,Cc1ccc(/C=C/C(=O)NCCc2cccc(Cl)c2)o1
-5%,COC(CNC(=O)c1ccc2nc(-c3cccs3)c(-c3cccs3)nc2c1)OC
7%,OC(CNCc1cccc(Br)c1)c1ccccc1 (stereo not drawn)
-2%,COc1ccc(Cl)cc1NC(=O)c1cnc2n(c1=O)CCS2
-3%,CCCCOc1ccc(C(=O)NCC(=O)NCCOc2ccc(C)cc2)cc1
-6%,CCOc1cc(CN2CCc3c([nH]c4ccccc34)C2)ccc1OC
-8%,Cc1onc(-c2c(Cl)cccc2Cl)c1C(=O)c1c[nH]c(C(=O)NCCCN2CCOCC2)c1
6%,Cc1ccc(S(=O)(=O)c2c(COC(=O)c3ccccc3Cl)c(-c3ccccc3)nn2C)cc1
-8%,O=C(NCCCn1ccnc1)C(=O)c1c[nH]c2ccccc12
-5%,COc1ccc(-c2nc3ccc([N+](=O)[O-])cc3[nH]2)cc1
20%,O=C(CSc1nc2ccccc2n1Cc1cccc(F)c1)N1CCN(c2ccc(F)cc2)CC1
10%,Cc1ccc(S(=O)(=O)Nc2ccc(N(C)C)cc2)cc1
15%,CC(C)N(C(=O)Cn1cc(S(=O)(=O)CC(=O)Nc2ccccc2)c2ccccc21)C(C)C
-14%,COc1ccccc1NC(=O)CCN1C(=O)c2ccccc2C1=O
7%,CC(C)c1cnc2c(c1SCC(=O)NC(C)(C)C)c(=O)n(C)c(=O)n2C
-1%,COc1ccc(O)c(-c2c(-c3ccc(Cl)cc3)n[nH]c2C)c1
-16%,CC(C)(C)C(=O)Oc1ccc2cc(-c3ccc4ccccc4n3)c(=O)oc2c1
16%,CCSc1ccc(-c2cccc([N+](=O)[O-])c2)nn1
12%,Cc1ccc(SCCNC(=S)Nc2ccc(C)cc2C)cc1
10%,Cc1ccc(S(=O)(=O)N2CCN(C(=O)CSc3nnc(-c4ccco4)o3)CC2)cc1
-25%&-5%,O=C(c1c(O)c2ccc(Cl)cc2[nH]c1=O)C1CC1
7%,CN(CC1CCCN(CCc2ccc(F)cc2)C1)C(=O)CCC(F)(F)F (stereo not drawn)
-23%,Cc1ccc(C)c(Cn2c(CN(C)Cc3ccccc3)nc3c2c(=O)n(C)c(=O)n3C)c1
20%,O=C(CSc1ccccc1C(=O)O)NC1CCCCCC1
-4%,COc1ccc(NC(=O)Nc2nnc(N(C)C3CCCCC3)s2)c(OC)c1
2%,FC(F)(F)c1cccc(NC(=S)N2CCCC2)c1
-9%,O=C(Cc1cccs1)NCCSc1c(-c2ccc(Cl)cc2)[nH]c2ccccc12
-16%,CCC/C=C(\CCC)C(NC(=O)Cc1ccccc1)c1ccc(C(=O)OC)cc1 (stereo not drawn)
13%,CCN(C[C@H]1N[C@@](C)(C(=O)OC)[C@H]2C(=O)N(C)C(=O)[C@@H]12)C(=O)Nc1ccc(F)cc1

The final 4 compounds of the part above open the next one.
VDR inh,SMILES
2%,FC(F)(F)c1cccc(NC(=S)N2CCCC2)c1
-9%,O=C(Cc1cccs1)NCCSc1c(-c2ccc(Cl)cc2)[nH]c2ccccc12
-16%,CCC/C=C(\CCC)C(NC(=O)Cc1ccccc1)c1ccc(C(=O)OC)cc1 (stereo not drawn)
13%,CCN(C[C@H]1N[C@@](C)(C(=O)OC)[C@H]2C(=O)N(C)C(=O)[C@@H]12)C(=O)Nc1ccc(F)cc1
-16%,Cc1c(N)cccc1-c1nc2ccccc2[nH]1
-13%,CC(NC(=O)c1csc2ccccc12)C1CCCO1 (stereo not drawn)
-13%,CCOc1ccc(NS(=O)(=O)c2ccc(C(=O)NCC(c3ccco3)N(C)C)cc2)cc1 (stereo not drawn)
-8%,Oc1ccc(N=Nc2ccc3ccccc3c2)cc1
-9%,Cc1cc(Br)ccc1NC(=S)Nc1cccc([N+](=O)[O-])c1
5%,CCOC(=O)/C=C/C(=O)Nc1ccccc1C(=O)NC1CCCCC1
-4%,Cn1c(=O)oc2cc(S(=O)(=O)CCC(=O)NCc3ccccc3)ccc21
17%,COc1ccc(-c2cccc(NS(=O)(=O)c3cc(C)c(OC)c(C)c3C)c2)nn1
3%,O=C(O)CN1C(=O)/C(=C2\SC(=S)N(C(Cc3ccccc3)C(=O)O)C2=O)c2ccccc21 (stereo not drawn)
7%,CCNC(=O)Nc1ccc(OC)cc1OC
3%,OC(CN1CCN(c2ccccc2)CC1)c1c[nH]c2ccccc12 (stereo not drawn)
-24%,COC(=O)c1cn(C(=O)c2cc(C)cc(C)c2)c2ccccc12
-12%,COc1ccc(/C=C/c2nc(S(=O)(=O)c3ccccc3)c(N(C)C)o2)cc1OC
3%,O=C(NC(=S)N1CCc2ccccc21)c1ccccc1
24%,C[C@H](CO)N1C[C@H](C)[C@@H](CN(C)Cc2ccc(-c3ccccc3)cc2)Oc2c(NC(=O)Nc3ccc(C(F)(F)F)cc3)cccc2C1=O
6%,COc1ccc(/C=N/n2cnnc2)cc1COc1ccccn1

Laid out differently: entries from further up.
smiles,VDR inh
C[C@H](CO)N1C[C@H](C)[C@@H](CN(C)Cc2ccc(-c3ccccc3)cc2)Oc2c(NC(=O)Nc3ccc(C(F)(F)F)cc3)cccc2C1=O,24%
O=C(NC(=S)N1CCc2ccccc21)c1ccccc1,3%

Continued:
VDR inh,SMILES
7%,Nn1c(SCC(=O)NCC2CCCO2)nnc1-c1cc(Cl)ccc1Cl (stereo not drawn)
5%,Cc1ccccc1NC(=S)N(Cc1cccnc1)Cc1ccco1
-7%,COc1ccc(-c2cc(C(=O)N/N=C/c3sccc3C)c3ccccc3n2)c(OC)c1
-27%,N#C/C(=C\c1ccc(F)c(Br)c1)C(=O)NC1CC1
-17%,Cc1ccc(S(=O)(=O)N2CCOCC2)cc1C(=O)NCc1ccccn1
7%,CCOc1cc(/C=N/NC(=O)CN2CCCCC2)ccc1OCc1ccccc1
0%,CC1(C)Cc2cccc(Oc3ccc(S(=O)(=O)N4CCCC4)cn3)c2O1
14%,Cc1cc(C)n2[nH]c(=O)c(N=Nc3cccc(Cl)c3)c2n1
10%,Cc1c(C)c2ccc(O[C@@H]3O[C@H](CO)[C@H](O)[C@H](O)[C@H]3O)cc2oc1=O
?,CNc1ncncc1-c1ccccc1CN(C)C
-5%,OCC1OC(n2ccc3c(SCc4ccccc4)ncnc32)C(O)C1O (stereo not drawn)
5%,CCCCSc1nnc(-c2cc(Br)ccc2N)c(=O)[nH]1
-11%,O=C(OCc1nnc(-c2ccccc2)o1)c1ccc2c(c1)OCO2
1%,COc1ccc(N(C(=O)c2ccco2)C(C(=O)NC2CCCC2)c2ccncc2)cc1 (stereo not drawn)
-12%,COC(=O)c1c(C(=O)OC)c(-c2cccc(Cl)c2)n2c1CS(=O)(=O)C2
2%,CC(=O)Nc1cc(C(=O)N2CCc3ccccc3C2)ccc1Sc1ccc(Cl)cc1

Quoted at random: 3 records from the list.
VDR inh,SMILES
13%,CCN(C[C@H]1N[C@@](C)(C(=O)OC)[C@H]2C(=O)N(C)C(=O)[C@@H]12)C(=O)Nc1ccc(F)cc1
10%,Cc1ccc(S(=O)(=O)Nc2ccc(N(C)C)cc2)cc1
-13%,CCOc1ccc(NS(=O)(=O)c2ccc(C(=O)NCC(c3ccco3)N(C)C)cc2)cc1 (stereo not drawn)

Next structures
VDR inh,SMILES
6%,Cc1cc2oc3c(c(=O)c2cc1C)C1(C(=O)N(C)c2ccccc21)N(CCO)C3=O (stereo not drawn)
-11%,CC1CCCC(NC(=O)CCNC(=O)c2ccc([N+](=O)[O-])cc2)C1C (stereo not drawn)
10%,Cc1ccc(C)c(NC(=O)CCCN2C(=O)COc3ccc(C)cc32)c1
-13%,CC(Oc1ccc(-c2ccccc2)c(F)c1)c1ccn(S(=O)(=O)c2ccc(F)cc2)n1 (stereo not drawn)
13%,CCNc1nc(NC(C)(C)C)nc(N(C#N)CC)n1
-14%,CCn1cc(C(=O)O)c(=O)c2cc(F)c(N3CCN(C(=S)NC(=O)c4ccccc4Br)CC3)cc21
1%,O=S(=O)(c1ccc2oc3ccccc3c2c1)N1CCCC1
5%,CC(=O)c1cccc(NC(=O)c2cc3nc(-c4ccc(Br)cc4)cc(C(F)(F)F)n3n2)c1
-5%,C=CCSc1nc2ccsc2c(=O)n1-c1ccccc1
?,CCCCc1nc(SCCOC)c2c(=O)n(C)c(=O)n(C)c2n1
14%,COc1ccc(CC(CC(=O)O)C(=O)Nc2ccccc2)cc1 (stereo not drawn)
-4%,O=C(NNC1=NS(=O)(=O)c2ccccc21)c1ccc([N+](=O)[O-])cc1
?,C[C@H](NC(N)=O)C(=O)Nc1ccc(N2CCOCC2)c(S(=O)(=O)Nc2ccc(Cl)cc2)c1
-7%,Cc1onc(-c2ccccc2)c1C(=O)N(C)CC(=O)Nc1ccc(F)c(F)c1F
3%,CCOC(=O)C1=C(CN2CCN(C(=O)OCC)CC2)NC(=O)NC1c1ccc2c(c1)OCO2 (stereo not drawn)
-6%,CC(C)(C)OC(=O)NC(CC(=O)OCc1ccccc1)C(=O)O (stereo not drawn)
2%,O=C(CSc1oc(-c2ccccc2)nc1S(=O)(=O)c1ccc(F)cc1)NCC1CCCO1 (stereo not drawn)
5%,COc1ccc(/C=N/Nc2ccccn2)c(OC)c1OC
4%,O=C(NC1CC1)c1sc2cc(Cl)ccc2c1Cl
1%,CN(c1ccc(C(=O)NCc2ccc3c(c2)OCO3)cc1)S(C)(=O)=O
-1%,Cc1ccc(S(=O)(=O)NNC(=O)c2ccoc2C)cc1
3%,COc1cc(C(=O)Nc2ccc3c(c2)nc(C)n3C)cc(OC)c1OC
-14%,CC(=O)N1CCc2cc(Br)cc(S(=O)(=O)N3CCc4ccccc43)c21
-12%,Cc1cc(S(=O)(=O)Nc2nc(CN3CCOCC3)nc3sc4c(c23)CCC4)ccc1F
5%&-7%&5%&3%&0%,Cc1ccc(/C(=C\CN2CCCC2)c2ccccn2)cc1
-27%,NS(=O)(=O)c1ccc(NC(=O)c2c(F)cccc2Cl)cc1
14%,COc1ccc(CCNC(=O)CCc2c(C)nc3c4c(C)cc(C)nc4nn3c2C)cc1OC
1%,CC(C)c1ccc(NC2CCCN(C(=O)c3cnsn3)C2)cc1 (stereo not drawn)
-11%,CCCN1CCN(C(=O)Cn2nc(CC)n3c(cc4sccc43)c2=O)CC1
4%,Cc1cc(C)c2nc(-c3cccnc3)cc(C(=O)Nc3ccc(S(=O)(=O)Nc4onc(C)c4C)cc3)c2c1
7%,O=C(CN1CCOCC1)Nc1ccc(NC(=O)CN2CCOCC2)c(Cl)c1
0%,COc1ccc(/C=N/NC(=O)c2cc3c(ccc4ccccc43)o2)cc1OC
-10%,Cc1ccc(NC(=O)COC(=O)C2=COCCO2)cc1
11%,O=C(Nc1ccc(C(=O)O)cc1)/C(=C/c1ccc2c(c1)OCO2)NC(=O)c1cccc(Br)c1
-16%,O=C(Cc1ccc(Cl)cc1)N1CCc2ccccc2C1
-6%,COc1cccc(C2=NOC(C(=O)N3CCN(C(=O)c4ccco4)CC3)C2)c1 (stereo not drawn)
5%,O=C(Cc1ccc(Br)cc1)NCCc1ccccc1
-6%,Cc1ccc(S(=O)(=O)N2CC=C(c3ccc(F)cc3)CC2)cc1
?,CCCCN(C(=O)c1cc(S(=O)(=O)N2CCCCC2)ccc1Cl)c1c(N)n(CC(C)C)c(=O)[nH]c1=O
10%,CSc1nnc(-c2ccccc2Cl)n1N
-1%,Cc1ccc(/C=C/C(=O)NCc2ccccn2)o1
-4%,CC1Sc2ccc(S(=O)(=O)CCC(=O)NCc3ccc(Cl)cc3)cc2NC1=O (stereo not drawn)
15%,Nc1nnc(SCC(=O)NCc2ccc3c(c2)OCO3)s1
-6%,CCS(=O)(=O)N1CCCC(C(=O)NCCN2CCC(Cc3ccccc3)CC2)C1 (stereo not drawn)
-3%,O=C(CC1Nc2ccccc2NC1=O)NCc1cccnc1 (stereo not drawn)
-9%,COc1cc2[nH]c(=S)nc(NCC3CCCO3)c2cc1OC (stereo not drawn)
3%,CCOC(=O)c1sc(NC(=O)CSc2n[nH]c(-c3ccc(Cl)cc3Cl)n2)c(C#N)c1C
?,O=C(O)c1cccc(NC2=C(Cl)C(=O)c3ccccc3C2=O)c1
0%,O=C(CSC1=NCCS1)N1CCc2ccccc21
3%,Cc1cc2c3c([nH]c2cc1S(=O)(=O)NCCCOC(C)C)CC(C)(C)CC3=O
14%,Cc1ccc(Cn2cccc(-c3nc4ccccc4s3)c2=O)cc1
-6%,Cc1noc(C)c1C(=O)Nc1ccccc1N1CCOCC1
12%,CCOC(=O)c1cc2occc2n1Cc1c(F)cccc1Cl
10%,O=C(Nc1nc2ccccc2n1CCOc1ccccc1Cl)c1ccccc1
-4%,O=C(CSc1ccc2c(c1)OCCO2)Nc1ccc(Br)cn1
2%,COC(=O)C1=C(CCc2ccccc2)NC(=O)NC1c1ccc(C#N)cc1 (stereo not drawn)

The final three entries of the part before are carried over, then new ones follow.
VDR inh,SMILES
10%,O=C(Nc1nc2ccccc2n1CCOc1ccccc1Cl)c1ccccc1
-4%,O=C(CSc1ccc2c(c1)OCCO2)Nc1ccc(Br)cn1
2%,COC(=O)C1=C(CCc2ccccc2)NC(=O)NC1c1ccc(C#N)cc1 (stereo not drawn)
4%,Cc1ccc(SCC(=O)NN2C(=O)c3ccccc3C2=O)cc1
2%,N=C(N)n1cccn1
-7%,Cn1c(CNC(=O)c2ccco2)nnc1SCCOc1ccccc1
13%,CN(/C=C/C(=O)C(F)(F)C(F)(F)F)Cc1ccccc1
-12%,Cc1nn(C)cc1CN(C)Cc1ccc(OCC(O)CN2CCCCC2)cc1 (stereo not drawn)
-3%,N#Cc1ccc(-c2cccs2)nc1SCC(=O)Nc1cccc(C(F)(F)F)c1
-7%,COc1ccc(OCC(O)CN2CCCC2)cc1 (stereo not drawn)
